Screening data from PubChem BioAssay.
Calb biofilm kill: mixtures killing C. albicans biofilm | C. albicans biofilm persisters + clotrimazole, fluorescence viability; primary screen in compound mixtures of four per well | inhibition, % at 7.6 µM | actives 0.02% (n = 120,000) | AID 1242;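 active means inhibition above 30.3% in the primary screen of four-compound pools, then above 30% when the compound was retested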;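 further: compounds exposed to preformed 24 h biofilms for 48 h; the number belongs to the whole pool; some results filed as inactive read as strong as hits; inactives centre near 12; 0% = biofilm with clotrimazole alone and 100% = kill control; retested singly at about 60 µM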
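System: C. albicans CAF4-2 wild-type biofilms; Medium: RPMI/MOPS medium, pH 7.0; Reagent: Clotrimazole, 50 µg/mL; Times: biofilm formation 24 h, compound exposure 48 h, 37 °C; Detection: 2-h Alamar Blue fluorescence, 535/590 nm excitation/emission; Evaluation: percent inhibition of biofilm viability.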
Numbers without * were called inactive.

SMILES	Calb biofilm kill
COc1cc(-c2ccc(NC(=O)NC3CC3)c(OC)c2)ccc1NC(=O)NC1CC1	29
CC1=C(C(=O)OC(C)C)C(c2ccccc2)NC(=S)N1C (configuration not stated)	5
FC(F)(F)c1ccc(Cl)c(NC(=S)N/N=C/c2ccccc2C(F)(F)F)c1	11
CCC(=O)NC(NC(=S)Nc1ccc(S(N)(=O)=O)cc1)C(Cl)(Cl)Cl (configuration not stated)	12
O=C1CCCC2=C1C(c1ccc(Cl)cc1)n1c(s/c(=C\c3ccc4ccncc4c3)c1=O)=N2 (configuration not stated)	9
COc1ccccc1N1CCN(CC(=O)Nc2c(C)n(C)n(-c3ccccc3)c2=O)CC1	2
O=C1C2N=NN(CC(=O)N3N=C(c4ccccc4)CC3c3ccc([N+](=O)[O-])cc3)C2C(=O)N1c1ccccc1 (configuration not stated)	-9
CCn1ccnc1CN(C)Cc1nc(-c2ccc(C(=O)OC)cc2)no1	21
CCC(=O)Nc1ccc2nc(C3CC3)n(Cc3ccc(C(C)(C)C)cc3)c(=O)c2c1	14
Cc1onc(-c2c(F)cccc2Cl)c1C(=O)NNC(=O)C1CCN(Cc2ccccc2)CC1	14
O=c1sc2ccccc2c(N2CCN(c3ccccc3)CC2)c1[N+](=O)[O-]	17
Cc1ccc(-c2cc3nc(-c4ccccc4)cc(N4CCC5(CC4)OCCO5)n3n2)cc1	14
CC(C)(C)NC(=O)C(c1ccncc1)N(Cc1cccs1)C(=O)c1csnn1 (configuration not stated)	19
Cc1ccc(OCC(=O)N/N=C\c2cccs2)c([N+](=O)[O-])c1	15
Clc1ccc(N2CCN(c3nc4nonc4nc3N3CCSCC3)CC2)nc1	-4
O=C(N/N=C/C=C/c1cccc([N+](=O)[O-])c1)c1ccncc1	-8
Cc1onc(-c2ccccc2Cl)c1C(=O)N1CCOC12CCCCC2	12
O=C(Nc1nc2ccc(C(=O)N3CCCCC3)cc2s1)C1CCCCC1	27
Cc1ccnn1CCC(=O)N1CCCC(CCC(=O)NCc2ccccc2F)C1 (configuration not stated)	23
COc1ccc(N)cc1S(=O)(=O)Nc1ccccc1Cl	-4
O=C(CSc1cccc2cccnc12)Nc1cccc(S(=O)(=O)N2CCOCC2)c1	8
Cc1csc(Sc2ccc(C(=O)OCC(=O)Nc3ccc(OC(F)(F)F)cc3)cc2[N+](=O)[O-])n1	10
Cc1ccc(NC(=O)C2CCCN2C(=O)NC2CCCCC2)cc1C (configuration not stated)	9
CCOC(=O)CNC(c1ccccc1)c1cc(Br)ccc1NC(C)=O (configuration not stated)	22
Cc1ccc(CSc2nc3[nH]ncc3c(=O)[nH]2)cc1	22
Cc1c(NC(=O)CN2CCN(c3cccc(Cl)c3)CC2)c(=O)n(-c2ccccc2)n1C	7
Cc1cc(C)n(-c2ccc(C(=O)OCC(=O)Nc3ccc([N+](=O)[O-])cc3)cc2)n1	15
COc1ccc(/C=C/C2=NNC(=O)CC2)cc1	4
CN(CC1COc2ccccc2O1)C(=O)c1ccc(N(C)C)cc1 (configuration not stated)	6
O=C(O)c1ccc(N2CC3CC(C2)c2cccc(=O)n2C3)c(NC(=S)Nc2ccc(Br)cc2)c1 (configuration not stated)	19
CC(C)C(C(=O)Nc1nccs1)N1C(=O)c2ccccc2C1=O (configuration not stated)	22
CNC(=O)c1cc(Cl)c(OC)c(OC)c1	18
Cc1ccccc1-c1oc(C)c(C)[n+]1[O-]	14
CCCCNC(=O)COC(=O)c1ccc(F)cc1Cl	9
Cc1cc2nc(Sc3c([N+](=O)[O-])nc(C)n3Cc3ccccc3)[nH]c2cc1C	6
Cc1ccc(C)c(S(=O)(=O)Nc2ccc3sc(C)nc3c2)c1	8
O=C(O)/C=C/c1ccc(-n2ccnc2)cc1	23
COc1ccc(S(=O)(=O)NC2CC2)cc1-n1cnnn1	15
Cc1cccc(N2CCN(Cc3nc(-c4ccccc4Cl)oc3C)CC2)n1	-9
O=C(N=c1ccn(-c2nc3ccccc3nc2NS(=O)(=O)c2ccc(Cl)cc2)cc1)c1cccs1	8
Cc1ccc(NC(NC(=O)c2cccnc2)C(Cl)(Cl)Cl)cc1 (configuration not stated)	19
Cc1ccc(C(=O)N(CCCN(C)C)c2nc3ccc(Cl)cc3s2)cc1C	-4
C=CCNC(=O)C(=O)NCCCN1CCOCC1	8
CCCOC1CCCN(Cc2nc(-c3ccc(C(=O)OC)cc3)no2)C1 (configuration not stated)	17
COc1ccc(-n2c(C)cc(C(=O)COc3ccc(C)nc3[N+](=O)[O-])c2C)cc1	15
COc1ccccc1C(=O)N/C(=C/c1ccccc1)C(=O)Nc1ccc(C(=O)O)cc1	18
O=C1C=C(Nc2ccc(O)cc2)CC(c2ccco2)C1 (configuration not stated)	10
CC(C)S(=O)(=O)c1ccc(C(=O)Nc2ccc(F)cc2F)cn1	-14
Cc1cc(C)c2nc(-c3ccccn3)cc(C(=O)n3cccn3)c2c1	9
O=S(=O)(Nc1n[nH]c(C(F)(F)F)n1)c1ccccc1	8
Fc1ccccc1C1c2[nH]c3ccccc3c2CCN1Cc1cccn1-c1ncccn1 (configuration not stated)	13
O=C(N/N=C1/CCSC1)c1cc(Br)ccc1O	10
O=C(Nc1nnc(-c2cccnc2)o1)c1cccc(Cl)c1	0
C=CCNC(=S)NNC(=O)c1ccc(C)c(Cl)c1	12
O=C(c1ccc(=O)[nH]c1)N(Cc1cccs1)C1(C(=O)NC2CCCC2)CCCCC1	9
COC(=O)c1ccc(C2=NOC(C)(c3sc(-c4ccccc4)nc3C)C2)cc1 (configuration not stated)	20
Cc1onc(-c2ccc(Cl)cc2)c1-c1ccnc(SCC(=O)Nc2ccc(C(C)C)cc2)n1	7
CC(C)C(=O)N(Nc1nc2ccccc2s1)C(=O)C(C)C	13
CC(=O)NC(Cc1cc(C)ccc1C)C(=O)N1CCN(C(=O)c2ccccc2Br)CC1 (configuration not stated)	16
CCN(CC)CC(C)(C)COC(=O)c1oc2ccccc2c1C	15
New compounds follow:
SMILES	Calb biofilm kill
CCCn1c2ccccc2c2nnc(SC(CC)C(=O)Nc3cc(C)on3)nc21 (configuration not stated)	11
Cc1nn(Cc2ccc(Cl)cc2)c(C)c1NC(=O)CCCn1nc(C)c([N+](=O)[O-])c1C	7
Cc1cc(C)c(S(=O)(=O)N2CCOC2CNC(=O)C(=O)NCCCn2ccnc2)c(C)c1 (configuration not stated)	17
O=C(CN1CCN(c2ccccc2)CC1)Nc1c(C(=O)C2CC2)oc2ccccc12	5
CN(C)c1ccc(C(=O)N/N=C/c2cc(Br)cc(Br)c2O)cc1	16
O=C1NC(NS(=O)(=O)c2ccc(Cl)cc2)(C(F)(F)F)C(=O)N1CCc1ccccc1 (configuration not stated)	3
c1ccc(Nc2ccc(-n3ccnc3)nn2)cc1	4
CCOC(=O)Cc1csc(NC(=O)Nc2ccc(OC(F)(F)F)cc2)n1	12
CN(C)c1ccc(NS(=O)(=O)c2ccc(-c3csnn3)cc2)cc1	23
CN(CC(=O)NCc1ccccn1)S(=O)(=O)c1ccc(F)cc1	8
COP1(=O)C[C@@H](O)[C@@H](O)[C@@H](COCc2ccccc2)O1 (some centres not stated)	17
O=C(N[C@@H](c1ccccc1)[C@@H]1C[C@H]1C(=O)O)OCc1ccccc1	10
O=S(=O)(c1ccccc1)N1CCC(=NO)CC1	-1
CC(C)C(=O)O/N=C(\N)c1ccccn1	9
CCn1ncc(Cl)c1C(=O)Nc1cc([N+](=O)[O-])ccc1OC	6
O=C(NCCN1CCCCC1)c1ccc(Oc2cc(Cl)cc(Cl)c2)o1	4
O=C(OCc1nnc(-c2ccccc2)o1)C12CC3CC(CC(Br)(C3)C1)C2	7
CC1(C)CC(=O)C2=C(C1)NC1=C(C(=O)c3ccccc31)C2c1ccccc1 (configuration not stated)	19
O/N=C1\CCCC\C1=C/c1ccccc1	18
O=C(C1CCCO1)N1CCN(C(=S)Nc2ccccc2Cl)CC1 (configuration not stated)	8
C=CCc1ccccc1OCC(=O)N/N=C/c1ccc(OC(C)=O)cc1OC(C)=O	1
O=C(Nc1ccc2nn(-c3ccccc3)nc2c1)c1ccco1	5
NC(=S)N/N=C1/CCSc2ccc3ccccc3c21	6
COc1ccc(CNS(=O)(=O)c2ccc(F)c(C(=O)Nc3ccccc3OC)c2)cc1	13
O=C(O)CCC(=O)c1ccc2c(c1)CCCC2	8
NS(=O)(=O)c1cc2c(cc1Cl)NC(C(Cl)Cl)NS2(=O)=O (configuration not stated)	14
Cc1sc2nc(COC(=O)c3c(F)cccc3F)[nH]c(=O)c2c1C	-1
O=C1c2cccc3cccc(c23)C(=O)N1OS(=O)(=O)c1ccc(Cl)cc1	12
O=C1/C(=C/c2ccco2)CCC1C1CCCC1 (configuration not stated)	17
S=C(Nc1ccccc1)N1CCCN1c1ccccc1	13

Fetched by structure from the list above (5):
SMILES	Calb biofilm kill
O/N=C1\CCCC\C1=C/c1ccccc1	18
O=C(Nc1ccc2nn(-c3ccccc3)nc2c1)c1ccco1	5
O=C1/C(=C/c2ccco2)CCC1C1CCCC1 (configuration not stated)	17
C=CCc1ccccc1OCC(=O)N/N=C/c1ccc(OC(C)=O)cc1OC(C)=O	1
COc1ccc(CNS(=O)(=O)c2ccc(F)c(C(=O)Nc3ccccc3OC)c2)cc1	13

(further entries)
SMILES	Calb biofilm kill
C/C(=N\NC(=O)c1ccccc1Br)c1ccc(N2CCOCC2)cc1	6
CCC(C)NC(=O)CN(c1ccc(OC)cc1)S(=O)(=O)c1ccccc1 (configuration not stated)	5
O=C(N/N=C/c1cccs1)c1cccc(NC(=O)c2ccccc2Cl)c1	12
COc1cc(/C=N/NC(=O)CNC(=O)c2ccco2)ccc1O	2
O=C(CSc1nnc(-c2cccnc2)s1)Nc1ccnc2ccccc12	6
O=C(Nc1ccc(Cl)cc1)Nc1nnc(CSCc2ccc(Cl)cc2)s1	22
Nc1ccc(Oc2ccc(Br)cc2)cc1	16
Cn1c(=O)n(C)c2cc(/C=N/NC(=O)c3ccc(Cl)cc3)ccc21	25
c1ccc(Sc2ncccn2)nc1	9
CCNC(=S)NNc1nc(N2CCOCC2)nc(N2CCOCC2)n1	14
Cc1ccc(C(=O)Nc2ccc(SC(F)F)cc2)s1	0
Cc1ccc(NC2=CC(=O)C(=O)c3ccccc32)cc1	11
COc1ccc(C(=O)Nc2nc3ccccc3[nH]2)cc1S(=O)(=O)N1CCOCC1	17
Clc1ccc(CN(Cc2ccc(Cl)cc2)c2nn[nH]n2)cc1	18
COc1ccc(NC(=O)COC(=O)c2ccncc2)c(OC)c1	6

Shown as comma-separated lines: entries from further up
canonical_smiles,Calb biofilm kill
Cc1ccc(C(=O)Nc2ccc(SC(F)F)cc2)s1,0
Cc1ccc(NC2=CC(=O)C(=O)c3ccccc32)cc1,11
COc1ccc(C(=O)Nc2nc3ccccc3[nH]2)cc1S(=O)(=O)N1CCOCC1,17
Clc1ccc(CN(Cc2ccc(Cl)cc2)c2nn[nH]n2)cc1,18
COc1ccc(NC(=O)COC(=O)c2ccncc2)c(OC)c1,6

Remaining list, next part:
SMILES	Calb biofilm kill
Cc1nc2ccccc2n1Cc1n[nH]c(=S)n1-c1ccc(Cl)cc1	15
Cc1onc(-c2ccccc2Cl)c1C(=O)Nc1nc2ccc(S(C)(=O)=O)cc2s1	7
O=C(N/N=C/c1ccc(F)cc1)c1ccc(OCc2ccccc2)cc1	10
CCn1c(O)c(C=C2N=c3ccccc3=N2)sc1=S	7
COCCNc1ccc([N+](=O)[O-])cc1C(=O)Nc1cccc(C)n1	10
CCC(CC)NC(=O)c1cccc(Br)c1	1
Cc1ccc(NC(=O)CCC(=O)N/N=C/c2ccc([N+](=O)[O-])o2)cc1C	14
CCN(CC)c1ccc(C=Nc2cc(C)ccc2C)c(O)c1	9
O=C(c1nc2ccccn2c1CN1CCCC(c2nc3ccccc3o2)C1)N1CCCC1 (configuration not stated)	12
Cc1cc(C)cc(Oc2ccccc2CO)c1	10
O=C(C1=C[C@@H](c2ccc(Br)cc2)C[C@@H](OCc2ccc(CO)cc2)O1)N1CCOCC1	15
CC(C)OC(=O)Cn1nnc2c(cnn2-c2ccccc2)c1=O	2
O=C(O)C1Cc2[nH]cnc2C(c2ccccc2O)N1 (configuration not stated)	13
C=C(C)C1CC=C(C)/C(=N/NC(=S)Nc2ccccc2)C1 (configuration not stated)	4
CN(C)c1ccc(P(=O)(OC2CCCCC2)C(O)c2ccccn2)cc1 (configuration not stated)	12

Entries above that contain a CF3 group, in the order listed:
SMILES	Calb biofilm kill
FC(F)(F)c1ccc(Cl)c(NC(=S)N/N=C/c2ccccc2C(F)(F)F)c1	11
Cc1csc(Sc2ccc(C(=O)OCC(=O)Nc3ccc(OC(F)(F)F)cc3)cc2[N+](=O)[O-])n1	10
O=S(=O)(Nc1n[nH]c(C(F)(F)F)n1)c1ccccc1	8
O=C1NC(NS(=O)(=O)c2ccc(Cl)cc2)(C(F)(F)F)C(=O)N1CCc1ccccc1 (configuration not stated)	3
CCOC(=O)Cc1csc(NC(=O)Nc2ccc(OC(F)(F)F)cc2)n1	12

Further entries:
SMILES	Calb biofilm kill
CC(=O)Nc1ccc(S(=O)(=O)NCCc2ccccn2)cc1	13
CCCCCc1nc2sc3c(c2c(=O)n1N)CCC3	4
Cn1c(CNC(=O)c2ccccc2F)nnc1SCc1nc2ccccc2c(=O)[nH]1	5
Cc1cc(OCC(=O)NC(C)C)cc(C)c1Br	11
Cn1c(=O)[nH]c2ncccc21	10
O=C(NCC1(N2CCCCC2)CCCCC1)C1CC(=O)N(c2ccc3c(c2)OCCO3)C1 (configuration not stated)	8
COc1ccc2[nH]c(=O)c(CNc3cc(C)ccc3C)cc2c1	1
Cc1ccc(NC(=O)/C=C\C(=O)NCC(=O)O)cc1	13
CCc1cc(C(=O)N2CCCC(CNC(=O)c3ccc(-c4ccccc4)cc3)C2)no1 (configuration not stated)	11
Cc1ccc(Cl)cc1NC(=O)COC(=O)C12CC3CC(CC(C3)C1)C2	6
Cn1nnnc1SCC(=O)NNC(=O)c1ccc(F)cc1	-15
Nc1ccc2nc(-c3cccs3)[nH]c2c1	15
CCn1c2ccccc2c2cc([N+](=O)[O-])ccc21	7

These rows are one share of the data; the hit share may differ from the screen's.
